GALR2 agonist: activates the human galanin receptor 2 | O43603 | GALR2-expressing cells, agonist activation read-out | activation, %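 (tested at 5 µM)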 | 140,000 tested, 0.48% active | AID 803;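 active = above mean plus 3 SD of all compounds, about 5% in these data, not always enough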;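 also: 0% = vehicle buffer wells and 100% = reference agonist at full effect; tested in CHO reporter cells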
RGS16-Gao: modulates binding between human RGS16 and Galphao | bead-based flow cytometry RGS16-Galphao binding, fluorescence; actives lie on both sides | binding response (% of control), % at 10 µM | 220,000 tested, 0.38% active | AID 1441;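 active = below 25% or above 175%, edge rows of some plates excepted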;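 also: Galphao activated by GDP with aluminum fluoride before binding; 100% = wells without compound and 0% = beads without RGS; some results beyond the cut were filed as inactive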
PKD1 inh: blocks activity of human protein kinase D1. inhibition, %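 (about 10 µM by stock and volumes)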. Q15139. AID 797. 200,000 tested, 0.056% active. PKD1 kinase fluorescence polarization assay;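 active = inhibition of 50% or more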;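 also: controls were vehicle for no effect and a reference inhibitor for full effect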
Target sequence (Q15139 whole entry, looked up): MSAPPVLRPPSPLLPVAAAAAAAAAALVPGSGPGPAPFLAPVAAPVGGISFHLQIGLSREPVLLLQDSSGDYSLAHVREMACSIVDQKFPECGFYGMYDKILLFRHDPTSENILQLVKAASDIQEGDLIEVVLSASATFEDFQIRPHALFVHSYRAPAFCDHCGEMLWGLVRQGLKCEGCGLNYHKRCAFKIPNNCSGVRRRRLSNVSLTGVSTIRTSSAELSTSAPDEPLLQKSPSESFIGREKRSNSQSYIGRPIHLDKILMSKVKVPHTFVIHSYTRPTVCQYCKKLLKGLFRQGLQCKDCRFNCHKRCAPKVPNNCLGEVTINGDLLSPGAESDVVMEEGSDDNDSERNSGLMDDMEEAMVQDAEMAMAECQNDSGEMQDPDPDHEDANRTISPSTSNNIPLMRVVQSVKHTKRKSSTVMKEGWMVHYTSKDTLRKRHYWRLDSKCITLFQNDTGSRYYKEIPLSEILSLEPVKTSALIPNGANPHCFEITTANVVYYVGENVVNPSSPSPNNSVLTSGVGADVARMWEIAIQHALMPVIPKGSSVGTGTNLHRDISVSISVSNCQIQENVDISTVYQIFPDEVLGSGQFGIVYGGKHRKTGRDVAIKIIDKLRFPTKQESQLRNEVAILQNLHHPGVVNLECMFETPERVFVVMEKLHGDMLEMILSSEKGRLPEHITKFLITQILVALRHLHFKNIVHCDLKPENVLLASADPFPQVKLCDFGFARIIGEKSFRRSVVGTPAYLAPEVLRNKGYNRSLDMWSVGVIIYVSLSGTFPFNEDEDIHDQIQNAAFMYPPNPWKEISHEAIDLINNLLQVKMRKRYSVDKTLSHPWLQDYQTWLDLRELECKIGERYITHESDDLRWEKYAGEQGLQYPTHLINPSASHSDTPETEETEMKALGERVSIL
Insulin prom inh: TRM-6 insulin promoter activity inhibition; inhibition, % at 2 µM; 130,000 tested, 0.9% active; TRM-6 cells (human fetal islet line), insulin promoter-eGFP reporter, imaging; reporter expression induced with tamoxifen; AID 1273;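 active = inhibition above the mean plus 3 SD, with well images judged a real hit on visual review, cut at about 60% in these data, passing the limit was not always enough; inconclusive = inhibition over the cutoff but images rejected on review; inactive = inhibition not above the cutoff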
HSV replic up: increases HSV replication in cells; maximum fold increase; HSV replication augmentation in cells, fold increase; 220,000 tested, 0.005% active;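 active = peak rise of 1.5-fold or more in the series; inconclusive = self-fluorescent or not available for retest; tested in PC3 cells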;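 also: first round at 10 µM; read as green reporter fluorescence; hits show the peak of a series up to 25 µM; 1 = signal of infected wells without compound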
Insulin prom inh cell count: second read-out of Insulin prom inh, no call of its own (marks repeat the call); normalized cell count, %; measured here: cell count, toxicity; reference of the scale not given here;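 cells exposed to compound for 48 h; stained nuclei by imaging scaled within each plate; lower means fewer cells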
HSV replic up primary fold: recorded beside HSV replic up, whose call it bears; fold increase; compound at 10 µM; measured here: primary screen fold increase 10 uM; tested in PC3 cells;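 GFP signal in the first replicate; 1 = infected wells without compound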
* = called active by the depositor. Only part of the results is shown; the hit share may differ from the screen's.

Screening Cc1c(N=Nc2c(O)n(C)c(=O)n(C)c2=O)c(=O)n(-c2ccccc2)n1C returned GALR2 agonist -0.7, RGS16-Gao 1, PKD1 inh -12, Insulin prom inh -20, HSV replic up inactive, Insulin prom inh cell count 87 and HSV replic up primary fold 1.1.
CC(O)CNc1ccc([N+](=O)[O-])c2cccnc12 (centres undefined) was read as GALR2 agonist -0.9, RGS16-Gao 102, PKD1 inh 4, Insulin prom inh 22, HSV replic up inactive, Insulin prom inh cell count 98 and HSV replic up primary fold 0.92.
For COc1ccc(C(=O)N2CCOCC2)cc1S(=O)(=O)N1CCC(C)CC1 the results were GALR2 agonist -3.6, RGS16-Gao 102, PKD1 inh -12, Insulin prom inh 34, HSV replic up inactive, Insulin prom inh cell count 49 and HSV replic up primary fold 0.9.
For Cc1cc(S(=O)(=O)NCC(C)C)ccc1OCC(=O)N1CCN(Cc2ccccc2)CC1 the results were GALR2 agonist -2.3, RGS16-Gao 117, PKD1 inh -4, Insulin prom inh -173, HSV replic up inactive, Insulin prom inh cell count 61 and HSV replic up primary fold 0.85.
COc1ccc(CCN(C)Cc2c(F)cccc2F)cc1OC was read as GALR2 agonist -1.0, RGS16-Gao 109, PKD1 inh 2, Insulin prom inh 21, HSV replic up inactive, Insulin prom inh cell count 78 and HSV replic up primary fold 0.98.
`COc1cc(/C=C(/C)[N+](=O)[O-])ccc1OCc1ccccc1Cl` gave GALR2 agonist 11*, RGS16-Gao 99, PKD1 inh -5, Insulin prom inh -42, HSV replic up inactive, Insulin prom inh cell count 67 and HSV replic up primary fold 0.53.
Screening Cc1cc2c(C(F)(F)F)cc(=O)oc2c2c1NCCC2 returned GALR2 agonist -0.8, RGS16-Gao 100, PKD1 inh 11, Insulin prom inh 18, HSV replic up inconclusive and Insulin prom inh cell count 102.
C=CCn1c(O)c(C(CC)=Nc2ccc(NC(C)=O)cc2)c(=O)[nH]c1=O was read as RGS16-Gao 103, HSV replic up inactive and HSV replic up primary fold 1.1.
`C=CCn1c(O)c(C(CC)=NC2CC2)c(=O)[nH]c1=O` gave GALR2 agonist -1.5, RGS16-Gao 102, PKD1 inh -5, Insulin prom inh 9, HSV replic up inactive, Insulin prom inh cell count 124 and HSV replic up primary fold 1.3.
Cc1ccc(-n2c(O)c(C=NCc3ccccn3)c(=O)[nH]c2=S)cc1 was read as RGS16-Gao 105, HSV replic up inactive and HSV replic up primary fold 1.
Screening O=C1NC(=O)C(CCc2ccncc2)(Cc2ccc([N+](=O)[O-])cc2)C(=O)N1 returned GALR2 agonist -1.2, RGS16-Gao 105, PKD1 inh -5, Insulin prom inh -7, HSV replic up inactive, Insulin prom inh cell count 112 and HSV replic up primary fold 0.99.
Screening Cc1cc(S(=O)(=O)NCc2ccccc2)ccc1OCC(=O)N1CCN(C)CC1 returned GALR2 agonist -1.0, RGS16-Gao 91, PKD1 inh -5, Insulin prom inh -40, HSV replic up inactive, Insulin prom inh cell count 101 and HSV replic up primary fold 0.76.
Screening O=Cc1cn(Cc2ccccc2[N+](=O)[O-])c2ccccc12 returned GALR2 agonist -0.5, RGS16-Gao 153, PKD1 inh -11, Insulin prom inh -5, HSV replic up inactive, Insulin prom inh cell count 74 and HSV replic up primary fold 1.1.
Screening O=S(=O)(c1ccccc1)N1CC1c1ccccc1 (centres undefined) returned GALR2 agonist 0.9, RGS16-Gao 92, PKD1 inh 0, Insulin prom inh 20, HSV replic up inactive, Insulin prom inh cell count 133 and HSV replic up primary fold 0.98.
For CC(Cc1ccccc1Sc1ccccc1O)N(C)C (centres undefined) the results were GALR2 agonist -0.4, RGS16-Gao 98, PKD1 inh 7, Insulin prom inh -26, HSV replic up inactive, Insulin prom inh cell count 128 and HSV replic up primary fold 0.88.
Screening CC#CP(=O)(OC)C(O)(CF)c1ccccc1 (centres undefined) returned GALR2 agonist -2.2, RGS16-Gao 84, PKD1 inh -10, Insulin prom inh -28, HSV replic up inactive, Insulin prom inh cell count 92 and HSV replic up primary fold 1.1.
Screening Cc1cccc(-n2c(-c3ccco3)nc3ccccc3c2=O)c1C returned RGS16-Gao 101, PKD1 inh 4, Insulin prom inh -6, HSV replic up inactive, Insulin prom inh cell count 108 and HSV replic up primary fold 1.2.
`CN(C)/C=c1\sc2c(C#N)cc(C(=O)c3ccc(Br)cc3)n2c1=O` gave GALR2 agonist -0.3, RGS16-Gao 132, PKD1 inh -3, HSV replic up 3.4* and HSV replic up primary fold 1.6*.
COc1ccc(CN2C(=O)NC(=O)/C(=C/c3cc(OC)c(OC)c(OC)c3)C2=O)cc1 was read as RGS16-Gao 91, HSV replic up inactive and HSV replic up primary fold 1.1.
For CCn1c(=N)n(Cc2ccccc2F)c2ccccc21 the results were GALR2 agonist -0.1, RGS16-Gao 107, PKD1 inh -5, Insulin prom inh 0, HSV replic up inactive, Insulin prom inh cell count 97 and HSV replic up primary fold 0.78.
Screening CN(C)c1ccc(/C=C/[N+](=O)[O-])cc1 returned GALR2 agonist -2.9, RGS16-Gao 96, PKD1 inh -3, Insulin prom inh 4, HSV replic up inactive, Insulin prom inh cell count 99 and HSV replic up primary fold 0.86.
Screening CC(C)C1(C)N=C(c2ncccc2C(=O)O)NC1=O (centres undefined) returned GALR2 agonist -3.4, RGS16-Gao 105, PKD1 inh 1, Insulin prom inh -62, HSV replic up inactive, Insulin prom inh cell count 59 and HSV replic up primary fold 0.97.
`O=C1Nc2ccccc2/C1=C/c1cnc[nH]1` gave GALR2 agonist -0.9, RGS16-Gao 90, PKD1 inh 69*, Insulin prom inh 0, HSV replic up inactive, Insulin prom inh cell count 102 and HSV replic up primary fold 0.71.
`Cc1cc(C=C2C(=O)N(C)C(=O)N(C)C2=O)c(C)n1-c1ccccc1` gave RGS16-Gao 90, PKD1 inh -6, Insulin prom inh 0, HSV replic up inactive, Insulin prom inh cell count 110 and HSV replic up primary fold 0.91.
Screening Nc1ccc(C2(c3ccc(N)cc3)CN3CCC2CC3)cc1 returned GALR2 agonist -0.6, RGS16-Gao 97, PKD1 inh 1, Insulin prom inh -7, HSV replic up inactive, Insulin prom inh cell count 112 and HSV replic up primary fold 1.
Screening Cc1ccccc1C1=NCC(=S)Nc2ccc(Cl)cc21 returned GALR2 agonist -2.9, RGS16-Gao 89, PKD1 inh -5, Insulin prom inh 0, HSV replic up inactive, Insulin prom inh cell count 62 and HSV replic up primary fold 0.99.
Screening CCN1CC2(COC(=O)c3ccccc3N)CCC(OC)C34C5CC6C(OC)CC(O)(C5C6OC)C(O)(C(OC)C23)C14 (centres undefined) returned GALR2 agonist -0.3, RGS16-Gao 102, PKD1 inh -4, Insulin prom inh -7, HSV replic up inactive, Insulin prom inh cell count 61 and HSV replic up primary fold 0.87.
`C[N+](C)(C)Cc1ccccc1` gave GALR2 agonist -1.4, RGS16-Gao 109, PKD1 inh -11, Insulin prom inh 27, HSV replic up inactive, Insulin prom inh cell count 77 and HSV replic up primary fold 0.7.
Screening CC1=NN(c2ccccc2)C(=O)/C1=C/c1c(O)[nH]c(=S)[nH]c1=O returned GALR2 agonist -0.1, RGS16-Gao 112, PKD1 inh 1, Insulin prom inh 12, HSV replic up inactive, Insulin prom inh cell count 107 and HSV replic up primary fold 1.
For CSc1ncc(/C=C2/C(=O)NC(=O)N(c3ccc(C(C)C)cc3)C2=O)cn1 the results were GALR2 agonist 5.1*, RGS16-Gao 97, PKD1 inh 2, Insulin prom inh -12, HSV replic up inactive, Insulin prom inh cell count 119 and HSV replic up primary fold 1.1.
Oc1cc2c(cc1O)[C@H]1c3ccccc3CN[C@@H]1CC2 was read as RGS16-Gao 141, HSV replic up inactive and HSV replic up primary fold 0.61.
`Cc1nn(Cc2ccccc2Cl)c(Cl)c1C(=O)O` gave RGS16-Gao 96, PKD1 inh -3, HSV replic up inactive and HSV replic up primary fold 1.
CNCCc1ccc(OC)c(OC)c1 was read as RGS16-Gao 105, HSV replic up inactive and HSV replic up primary fold 0.97.
`COc1ccc(NC(=O)c2cn(CCC#N)nc2-c2ccc([N+](=O)[O-])cc2)cc1` gave RGS16-Gao 104, PKD1 inh -5, Insulin prom inh 27, HSV replic up inactive, Insulin prom inh cell count 111 and HSV replic up primary fold 0.93.
For COc1cc2c(cc1OC)-c1c(OC)c(OC)cc3c1[C@H](C2)[N+](C)(C)CC3 the results were GALR2 agonist -1.8, RGS16-Gao 101, PKD1 inh -8, Insulin prom inh -14, HSV replic up inactive, Insulin prom inh cell count 119 and HSV replic up primary fold 0.76.
`C=CCn1c(O)c(C(CC)=Nc2ccc(C(=O)O)cc2)c(=O)[nH]c1=O` gave RGS16-Gao 98, HSV replic up inactive and HSV replic up primary fold 1.1.
Screening CN1Cc2cccnc2N(C)Cc2cc(Cl)ccc21 returned GALR2 agonist -0.1, RGS16-Gao 111, PKD1 inh -5, Insulin prom inh -13, HSV replic up inactive, Insulin prom inh cell count 113 and HSV replic up primary fold 0.95.
For CCOC(=O)C1(c2ccccc2)CCN(Cc2cccc(C(=O)O)c2)CC1 the results were GALR2 agonist 0.1, RGS16-Gao 71, PKD1 inh -4, HSV replic up inactive and HSV replic up primary fold 0.9.
`CCCCCCn1c(O)c(C(C)=NC)c(=O)[nH]c1=O` gave GALR2 agonist 0.0, RGS16-Gao 99, PKD1 inh 3, Insulin prom inh -36, HSV replic up inactive, Insulin prom inh cell count 107 and HSV replic up primary fold 0.79.
COc1ccc(NP(=O)(Nc2ccc(OC)cc2)Oc2ccccc2)cc1 was read as GALR2 agonist 0.6, RGS16-Gao 106, PKD1 inh 7, HSV replic up inactive and HSV replic up primary fold 0.91.
`Cc1cc(C)nc(NS(=O)(=O)c2ccc(N=Cc3c(O)n(C)c(=O)n(C)c3=O)cc2)n1` gave RGS16-Gao 102, PKD1 inh 5, Insulin prom inh 17, HSV replic up inactive, Insulin prom inh cell count 89 and HSV replic up primary fold 1.2.
COC(=NC1CCCCC1)C(O)c1c[nH]c2ccccc12 (centres undefined) was read as GALR2 agonist -3.4, RGS16-Gao 97, PKD1 inh 5, Insulin prom inh -35, HSV replic up inactive, Insulin prom inh cell count 97 and HSV replic up primary fold 0.88.
Screening c1ccc(C(OCCN2CCNCC2)c2ccccc2)cc1 returned GALR2 agonist -4.5, RGS16-Gao 104, PKD1 inh -8, HSV replic up inactive and HSV replic up primary fold 0.87.
For COC(=O)c1c(C)n(Cc2ccc3c(c2)OCO3)c2ccc(O)cc12 the results were GALR2 agonist -2.5, RGS16-Gao 113, PKD1 inh -11, Insulin prom inh 24, HSV replic up inactive, Insulin prom inh cell count 100 and HSV replic up primary fold 1.
Screening CC(N)Cc1c[nH]c2ccc(Cl)cc12 (centres undefined) returned GALR2 agonist -2.5, PKD1 inh 3, Insulin prom inh 16, HSV replic up inactive, Insulin prom inh cell count 142 and HSV replic up primary fold 0.84.
For Cc1ccc(/C=C2\C(=O)NC(=O)N(CC3CCCO3)C2=O)s1 (centres undefined) the results were RGS16-Gao 99, HSV replic up inactive and HSV replic up primary fold 0.98.
COC(=O)C(O)(c1ccc(N(C)S(=O)(=O)c2ccccc2)cc1)C(F)(F)F (centres undefined) was read as GALR2 agonist -1.6, RGS16-Gao 111, PKD1 inh 8, HSV replic up inactive and HSV replic up primary fold 1.1.
Screening COc1ccc(C(C)=O)cc1CC(C(=O)c1ccc(F)cc1)N(C)C (centres undefined) returned GALR2 agonist -0.2, RGS16-Gao 102, PKD1 inh 3, Insulin prom inh -18 and Insulin prom inh cell count 83.
For CCOc1ccccc1N1C(=O)NC(=O)C(CCc2ccncc2)(CCc2ccncc2)C1=O the results were GALR2 agonist -3.0, RGS16-Gao 86, PKD1 inh 1, Insulin prom inh 31, HSV replic up inactive, Insulin prom inh cell count 79 and HSV replic up primary fold 1.
Screening O=C1NC(=O)[C@]2(Cc3ccccc3N3CCN(c4ccccc4)CC32)C(=O)N1c1ccccc1 (some centres undefined) returned GALR2 agonist -2.5, RGS16-Gao 107, PKD1 inh -4, Insulin prom inh 27, HSV replic up inactive, Insulin prom inh cell count 71 and HSV replic up primary fold 0.61.

Taken from above (3 entries):
For COC(=O)c1c(C)n(Cc2ccc3c(c2)OCO3)c2ccc(O)cc12 the results were GALR2 agonist -2.5, RGS16-Gao 113, PKD1 inh -11, Insulin prom inh 24, HSV replic up inactive, Insulin prom inh cell count 100 and HSV replic up primary fold 1.
Screening CC(N)Cc1c[nH]c2ccc(Cl)cc12 (centres undefined) returned GALR2 agonist -2.5, PKD1 inh 3, Insulin prom inh 16, HSV replic up inactive, Insulin prom inh cell count 142 and HSV replic up primary fold 0.84.
For Cc1ccc(/C=C2\C(=O)NC(=O)N(CC3CCCO3)C2=O)s1 (centres undefined) the results were RGS16-Gao 99, HSV replic up inactive and HSV replic up primary fold 0.98.
